Screens: PubChem BioAssay, several laboratories
Autofluor counter: counter-screen for toxin protease inhibitors: compound fluorescence; fluorescence intensity (test concentration not listed); actives 3.1% (n = 360,000); compound autofluorescence counterscreen, microsphere flow cytometry; stronger effect = higher value;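 active = at least 3 SD above the mean of all compounds, about 16000 in these data; inconclusive = too few beads counted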;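 note: 100 nL of 1 mM stock went into each well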
BJeLR viability: kills HRASV12-expressing BJeLR cells; BJeLR (HRASV12) viability, CellTiter-Glo ATP luminescence, 48 h; reference of the scale not given here; inhibition, % (concentration not given with the values); actives 0.17% (n = 300,000);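 active = replicate mean above 50%; inconclusive = above 50% but judged a plate artefact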;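 note: 50 nL library stock added to about 25 µL; numbers are from one replicate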
PrP UTR inh: inhibition of PrP 5' UTR reporter expression. cell-based PrP 5' UTR mRNA reporter, plate reader. inhibition, % (no concentration beside the values). actives 0.35% (n = 340,000). AID 488862;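 active = every replicate at 50% or more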;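 note: 0 = median of the neutral control wells; tested in H4 reporter cells; numbers are from one replicate; inactives centre near -14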
Sa ugtP lethal: kills S. aureus RN4220 lacking UgtP. actives 0.54% (n = 330,000). AID 1259309. growth inhibition, % (test concentration not listed). S. aureus RN4220 ugtP deletion, OD600 growth, 16 h; some inactives read as strong as hits;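 active = z-score under -3 and OD600 up to 0.15 on both plates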;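 note: plate controls were untreated wells for no effect and antibiotic for full effect; wells of about 80 µL received 100 nL stock; the first replicate is given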
Sa RN4220 lethal: kills Staphylococcus aureus RN4220. S. aureus RN4220 growth, OD600, 16 h. actives 0.33% (n = 330,000). inhibition, % (no concentration beside the values);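 active = z-score of -3 or lower and OD600 up to 0.18 on both plates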;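 note: plate controls were untreated cells for no effect and reference antibiotic for full effect; stock transfer was 100 nL into about 80 µL; one replicate is shown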
Mtb hypoxia inh: inhibitors of hypoxia-regulated fluorescent reporter in Mycobacterium tuberculosis. actives 0.1% (n = 300,000). M. tuberculosis hypoxia-regulated fluorescent reporter, fluorescence. AID 1159583. fluorescence inhibition, % (test concentration not listed);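 active = 35 to 45% if threefold the growth effect, above 45% if 1.5-fold the growth effect; inactive = the rest, general growth blockers included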;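 note: wells of about 50 µL received 100 nL stock; 0% = vehicle wells and 100% = reference inhibitor wells; whole bacteria with a GFP reporter of the hypoxia response; strong numbers were not always called active; many hits fall short of the cut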
Mtb hypoxia inh growth: further read-out of Mtb hypoxia inh, marked with its call; growth inhibition, %; measured here: M. tuberculosis growth (absorbance);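 0% = vehicle and 100% = reference antibiotic; read after six days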
* = called active by the depositor; ? = inconclusive; / = no result given.

compound | Autofluor counter | BJeLR viability | PrP UTR inh | Sa ugtP lethal | Sa RN4220 lethal | Mtb hypoxia inh | Mtb hypoxia inh growth
CCOC(=O)C(Cc1ccc(NC(=O)/C(=C\c2ccccc2)NC(=O)c2ccccc2)cc1)N1C(=O)c2ccccc2C1=O (configuration not stated) | 2510 | 14.0 | 2.0 | -2.3 | 3.8 | -1.5 | -3.1
COc1ccc(-c2cc(=NCC(=O)O)c3ccccc3o2)cc1 | 3681 | -7.3 | -18.7 | 1.1 | 1.5 | 6.5 | 5.1
CC(C)N(Cc1ccccc1)C(=O)COC(=O)c1ccc2c(c1)OCCO2 | 3573 | -6.7 | 0.6 | 2.7 | 0.9 | 1.2 | 1.7
COc1cc(C(=O)N(Cc2ccccc2)c2cccc(C)c2)ccc1OC(F)F | 5595 | -5.0 | -17.6 | 19.9 | -1.5 | 10.6 | 3.9
O=C(COc1ccc(C(=O)NCCN2CCOCC2)cc1)Nc1cccc(C(F)(F)F)c1 | ? | 8.6 | -3.5 | -8.5 | -4.8 | -8.2 | -3.4
O=C(NCCCNC(=O)c1c(Cl)cccc1Cl)c1c(Cl)cccc1Cl | 5108 | -0.5 | -11.6 | 6.9 | 1.2 | 8.0 | 7.8
Cc1ccccc1S(=O)(=O)Cc1ccc(C(=O)NCCCN2CCC(C)CC2)o1 | 5730 | 4.5 | -20.1 | 4.1 | 6.0 | 14.9 | 9.0
Brc1ccc(-c2csc3ncnc(-n4nnc5ccccc54)c23)cc1 | 6836 | 4.5 | 1.8 | -37.9 | -1.9 | 0.2 | 10.9
COc1ccc(-n2nc(C(=O)NCC(=O)NCC3COc4ccccc4O3)c3ccccc3c2=O)c(OC)c1 (configuration not stated) | 3309 | 1.7 | -91.8 | 1.7 | 6.7 | 12.5 | -4.9
CCOCCc1nnc(NC(=O)C(C)Oc2ccccc2)s1 (configuration not stated) | 4670 | 6.9 | -2.0 | 4.3 | 3.9 | 14.1 | 12.6
Cc1ccc(-n2c(=O)[nH]cc(C(=O)Nc3ccc4c(c3)OCCO4)c2=O)cc1C | 5235 | 0.8 | 0.4 | -3.4 | 5.9 | 6.6 | 17.3
O=C(COC(=O)c1ccc(C(F)(F)F)cc1)NC(=O)NC1CCCC1 | 3881 | / | -11.8 | 1.2 | 0.6 | -1.0 | 0.1
O=C(c1cccnc1)N1CCN(Cc2ccc3ccccc3c2)CC1 | 4124 | -2.3 | -7.4 | 3.2 | 0.7 | -11.7 | -6.3
CCOc1cc(CNCCN(C)C)c(Cl)cc1OCC(=O)NCCc1ccccc1 | 2905 | 3.0 | 1.9 | -0.8 | -14.1 | 19.0 | 8.9
O=C(CN1CCN(Cc2ccc(Cl)cc2)C1=O)NCCCN1CCN(c2ccc(F)cc2)CC1 | 11858 | 27.0 | -2.8 | 11.3 | -1.1 | 4.1 | 4.1
COCCN(CC(=O)Nc1cccc(S(=O)(=O)N2CCCC2)c1)Cc1nc2ccccc2c(=O)[nH]1 | ? | / | -11.3 | -2.8 | 1.1 | 3.4 | -5.4
Nc1ccccc1SCC(=O)Nc1ccc2c(c1)OCO2 | 3939 | -4.2 | -58.3 | 12.8 | 3.2 | 12.7 | -4.4
Cc1nnc(NCc2ccco2)s1 | 3887 | -0.5 | -22.8 | -0.6 | 1.4 | 15.2 | 6.9
COc1cc(-c2nc3ccccc3nc2-c2ccc(O)c(OC)c2)ccc1O | 3168 | 2.5 | -14.8 | 17.5 | 0.0 | -11.6 | -8.4
Cc1ccc(C(=O)CSc2ncnc3sc4c(c23)CCC(C)C4)cc1 (configuration not stated) | 3507 | 6.2 | -18.2 | -8.1 | 4.4 | 3.8 | 11.5
CC(Cc1ccccc1)C(=O)Nc1ccc(Br)cc1 (configuration not stated) | 3956 | -3.5 | -27.0 | 0.0 | 1.4 | 13.6 | 4.5
Cc1ccc(OCc2ccc(C(=O)Nc3ccc(S(N)(=O)=O)cc3)o2)cc1 | 3395 | -5.9 | -19.1 | 1.7 | 1.9 | 6.5 | 2.7
COC(=O)c1oc2ccc(Br)cc2c1-n1cccc1 | 2560 | -1.7 | -3.8 | 12.1 | 21.6 | 10.4 | 5.7
CC(C)c1cccc(C(C)C)c1NC(=O)COC(=O)[C@H](C)NC(N)=O | 4623 | 27.2 | -7.8 | 1.5 | 1.3 | 7.4 | 2.9
Nc1nnn(CC(=O)NN=Cc2cccc3ccccc23)n1 | / | / | / | 6.6 | 2.1 | 9.1 | -4.4
CC1CCN(c2ccc(C(=O)NCc3cccs3)cn2)CC1 | 5767 | 7.1 | -36.9 | 4.9 | -1.3 | 2.0 | 13.1
Cc1ccc(P(=Nc2ccccc2)(N2CCOCC2)N2CCOCC2)o1 | 9062 | -4.3 | -17.8 | 12.6 | 1.0 | 3.0 | 1.5
O=C(Nc1ccnn1C1CCN(Cc2ccc(Cl)cc2)CC1)C1CCCC1 | 5327 | 12.1 | -2.6 | 4.4 | 2.1 | 6.4 | 4.4
Cc1cccc(NC(=O)NNS(=O)(=O)c2ccc(F)cc2)c1 | 2050 | -4.3 | -11.3 | 0.9 | 2.8 | 5.5 | 2.3
O=C(CN(C(=O)CCC(=O)Nc1nccs1)c1ccccc1F)NCC1CCCO1 (configuration not stated) | 4166 | 0.2 | -40.6 | 2.2 | 0.9 | / | /
CC1COC(=O)C(NNc2ccc(Cl)c(Cl)c2)=N1 (configuration not stated) | 3337 | 5.0 | -17.7 | 11.7 | 4.6 | -7.9 | 10.7
O=C(Nc1cc(Cl)ccc1Cl)C1CCCO1 (configuration not stated) | 4093 | -9.6 | -12.0 | 12.9 | -0.9 | 7.6 | 8.0
Fc1ccc(N/N=C2/CC(c3ccccc3)Oc3ccccc32)c(F)c1 (configuration not stated) | 2116 | -4.9 | -16.9 | / | / | / | /
CCOC(=O)Cn1c(=O)oc2cc(S(=O)(=O)Nc3ccc(F)cc3)ccc21 | 4186 | 7.8 | -3.6 | / | / | / | /
Cc1cccnc1NC(=O)c1ccc(COc2ccccc2)o1 | 5601 | 0.0 | -6.9 | 1.5 | 1.3 | 3.1 | 10.7
COc1ccc(OC)c2[nH]c(=O)c(CCNC(=O)c3ccc(S(=O)(=O)N4CCCC4)cc3)cc12 | 2088 | 2.7 | -2.5 | 4.7 | 2.1 | / | /
Cc1ccccc1NC(=O)Cc1nnc(SCC(=O)N2CCN(c3ccccc3)CC2)n1C | 3215 | -3.1 | -17.0 | 4.2 | -10.9 | 4.1 | 1.9
CCc1ccccc1C1C(=O)c2ccccc2C1=O | / | 0.2 | 5.0 | 4.5 | 2.2 | 9.9 | 0.2
Cc1ccc2cccc(Oc3ncnc4scc(-c5ccc(Cl)cc5)c34)c2n1 | 2143 | 5.7 | -7.8 | 9.5 | 2.9 | 12.5 | 3.0
O=C(CN1C(=O)C2C3C=CC(C3)C2C1=O)Nc1cccc(S(=O)(=O)N2CCCC2)c1 (configuration not stated) | 1987 | -15.0 | -0.7 | 4.5 | 4.5 | 4.9 | 12.0

2 of the compounds above, as labelled records.
Nc1nnn(CC(=O)NN=Cc2cccc3ccccc23)n1
  Autofluor counter: /
  BJeLR viability: /
  PrP UTR inh: /
  Sa ugtP lethal: 6.6
  Sa RN4220 lethal: 2.1
  Mtb hypoxia inh: 9.1
  Mtb hypoxia inh growth: -4.4
COc1cc(-c2nc3ccccc3nc2-c2ccc(O)c(OC)c2)ccc1O
  Autofluor counter: 3168
  BJeLR viability: 2.5
  PrP UTR inh: -14.8
  Sa ugtP lethal: 17.5
  Sa RN4220 lethal: 0.0
  Mtb hypoxia inh: -11.6
  Mtb hypoxia inh growth: -8.4

Additional compounds
compound | Autofluor counter | BJeLR viability | PrP UTR inh | Sa ugtP lethal | Sa RN4220 lethal | Mtb hypoxia inh | Mtb hypoxia inh growth
O=S(=O)(Nc1cc(Cl)cc(Cl)c1)N1CCOCC1 | 5816 | -0.2 | -17.3 | -2.2 | 5.4 | 6.7 | 2.0
Cc1ccc(/C=N/NC(=O)CN2CCN(Cc3ccccc3)CC2)o1 | 3222 | -2.8 | -17.7 | / | / | / | /
Cc1ccc(OCc2nnc(SCc3cc(=O)[nH]c4ccccc34)n2-c2ccccc2)cc1 | 9698 | -7.8 | -2.4 | -2.0 | 8.2 | 4.5 | 11.1
COc1ccc(C(=O)c2c3ccccc3[n+]([O-])n2CCC(N)=O)cc1 | 3536 | 2.4 | -14.6 | 4.3 | 4.5 | 19.1 | 4.5
Cc1cc2c(n1-c1ccc(Cl)cc1)CC(C)(C)CC2=O | 19623* | -2.6 | -8.9 | 0.6 | 21.0 | 3.7 | 7.0
Cc1cc(NC(=O)c2sc3ccccc3c2O)no1 | 5199 | -5.0 | -54.8 | 7.8 | 9.5 | 5.7 | 12.8
COC(=O)Cn1c(O)c(N=NC(=O)c2ccc3c(c2)OCO3)c2ccccc21 | 3246 | 11.4 | -62.7 | 5.2 | 2.9 | 2.9 | 8.5
O=c1cc(CSc2nnc(-c3cccnc3)n2-c2ccccc2F)nc2sccn12 | 8413 | -3.8 | -22.9 | -8.4 | 5.0 | -10.7 | 2.9
Cc1cc(C(=O)NNC(=O)CCCOc2ccccc2)c(C)o1 | 6177 | -2.5 | -15.0 | 5.6 | 3.2 | 0.1 | 1.5
O=C(COC(=O)c1ccc(Cl)nc1)NCc1cccs1 | 4327 | 0.5 | -29.0 | 8.7 | 2.9 | 12.9 | 2.0
Cc1oc(-c2ccc(Cl)cc2)cc1C(=O)/C(C#N)=C/Nc1ccccc1 | 5519 | -5.4 | -27.3 | 5.0 | 2.4 | 12.0 | 4.5
O=C(NCCCN1CCOCC1)C(=O)NCC1CCCO1 (configuration not stated) | 2088 | -4.9 | -21.0 | 7.9 | -0.3 | 9.1 | 6.6
COc1ccc(Cc2nc3ccccc3[nH]c2=O)cc1 | 5810 | -10.5 | -8.4 | -3.0 | 1.7 | -5.6 | 4.1
CC(=O)Cc1nsc(NC(=O)c2ccc(COc3ccccc3C)o2)n1 | 3721 | -2.7 | -15.5 | / | / | / | /
COC(=O)C1=C(C)NC(C)=C(C(=O)OC)C1c1ccc(OC(=O)c2oc3ccccc3c2C)c(OC)c1 | 2768 | -2.5 | -19.0 | 23.2 | -7.7 | 11.7 | 5.0
Cc1cccc(-n2nnc(C(=O)NCc3ccccc3Cl)c2N)c1 | 3216 | 4.6 | -16.5 | 2.2 | 6.8 | 18.9 | 6.2
CCN1CCN(C(=O)CS(=O)(=O)Cc2nc(-c3ccccc3C)oc2C)CC1 | 5158 | 3.1 | -24.3 | -0.9 | -3.5 | -5.7 | -22.1
O=C(COC(=O)/C=C/c1ccc(Cl)cc1Cl)NCc1ccco1 | 3831 | 1.3 | -7.7 | 9.8 | 5.2 | 0.9 | -2.0
COc1ccc(NC(=O)CCN2C(=O)C3C4CCC(C4)C3C2=O)cc1 (configuration not stated) | 8751 | 7.5 | -0.1 | 3.0 | 3.3 | 7.3 | 9.2
Cc1ccccc1NCCC(=O)Nc1ccc(Cl)cc1 | 3910 | 2.9 | -22.5 | 4.6 | -2.7 | 5.3 | -0.8
COC(=O)C1=C(c2cccc(OC)c2OC)CC2CCC1N2C(=O)NCc1ccco1 (configuration not stated) | / | / | / | -4.5 | 3.2 | 10.3 | 4.5
COC(=O)C1CCN(S(=O)(=O)Cc2ccccc2)CC1 | 7768 | -1.1 | 1.1 | 0.3 | -1.5 | -6.0 | -10.3
Cc1cccc(S(=O)(=O)Nc2ccc(-n3c(C)nc4ccccc4c3=O)cc2)c1 | 5877 | -2.1 | -25.6 | -4.3 | 0.3 | -2.1 | -5.9
Cc1ccc2[nH]c(=O)c(CN(Cc3cccs3)C(=S)NCc3ccco3)cc2c1 | 2676 | 10.0 | -4.7 | -13.7 | 1.7 | 13.6 | 4.9
COc1ccc(NC(=S)N2CCC(C(=O)N3CCCCCC3)CC2)cc1 | 9254 | 1.9 | -7.5 | 4.1 | 2.3 | 11.9 | 6.1
N#Cc1sc2nc(-c3cccs3)cc(-c3ccc(Cl)cc3)c2c1N | 16199* | -1.3 | -5.5 | -21.3 | 25.7 | 5.6 | -0.4
CC(=O)N1c2ccc(S(=O)(=O)NCC3CCC(C(=O)NC4CCC(C)CC4)CC3)cc2CC1C (configuration not stated) | 6170 | 14.5 | -6.6 | 6.3 | 2.7 | 9.9 | 1.0
